Source: PubChem BioAssay (ICCB-Longwood Screening Facility, Harvard Medical School)
MenB inh: inhibitors of Mycobacterium tuberculosis MenB enzyme; MenB enzyme assay, absorbance read-out; some hits fall short of the stated cut; 0.43% of 100,000 active; inhibition, %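 (about 12 µg/mL by stock and volumes)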; P9WNP5;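 active means mean of two replicates above 30%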;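 further: 0% = no compound and 100% = wells with inactive enzyme; the first replicate is given; strong numbers were not always called active; inactives centre near -10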
Target sequence (P9WNP5 whole entry, looked up): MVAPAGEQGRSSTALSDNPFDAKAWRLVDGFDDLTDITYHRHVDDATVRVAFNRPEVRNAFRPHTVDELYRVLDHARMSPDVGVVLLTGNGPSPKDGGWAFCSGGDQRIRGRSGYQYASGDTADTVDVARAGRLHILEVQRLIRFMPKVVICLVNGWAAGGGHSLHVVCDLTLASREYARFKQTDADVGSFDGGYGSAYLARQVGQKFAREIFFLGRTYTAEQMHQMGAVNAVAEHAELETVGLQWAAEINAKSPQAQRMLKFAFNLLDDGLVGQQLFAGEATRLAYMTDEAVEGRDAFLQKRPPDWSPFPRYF
PV pol inh: poliovirus RNA polymerase inhibition; P03300; poliovirus polymerase elongation, fluorescence polarization; hits give low values; % elongation, % (compound at 16.7 µg/mL); 0.66% of 150,000 active; AID 588519; in the data active means % elongation below about 90%; further: some results filed as inactive read as strong as hits
Mtb MbtI inh: blocks the Mycobacterium tuberculosis siderophore enzyme MbtI. P9WFX0. purified MbtI enzyme, fluorescence intensity read-out. inhibition, %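 (about 17 µg/mL by stock and volumes)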. 0.89% of 100,000 active. AID 493033;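 active means above 50% in both replicates, above 80% if mildly self-fluorescent; inactive means the rest, strongly fluorescent compounds included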;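 further: 0% = mean of negative and 100% = mean of positive controls; one replicate is shown; some compounds called inactive have numbers as strong as hits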
Target sequence (P9WFX0 whole entry, looked up): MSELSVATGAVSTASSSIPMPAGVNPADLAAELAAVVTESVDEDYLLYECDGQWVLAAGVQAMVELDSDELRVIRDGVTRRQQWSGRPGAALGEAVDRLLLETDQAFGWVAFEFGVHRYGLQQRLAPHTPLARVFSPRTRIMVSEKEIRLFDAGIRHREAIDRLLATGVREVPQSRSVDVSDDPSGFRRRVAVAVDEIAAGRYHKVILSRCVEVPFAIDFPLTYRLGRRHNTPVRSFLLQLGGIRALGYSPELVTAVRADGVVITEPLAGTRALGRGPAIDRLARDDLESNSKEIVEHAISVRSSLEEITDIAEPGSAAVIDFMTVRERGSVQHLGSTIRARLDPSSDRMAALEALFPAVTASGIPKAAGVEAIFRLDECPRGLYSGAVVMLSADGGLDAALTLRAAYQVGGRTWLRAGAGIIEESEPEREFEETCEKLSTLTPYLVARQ
PV pol inh intensity: further read-out of PV pol inh, marked with its call; % elongation; measured here: total intensity read-out; formula for this scale not given here;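 total fluorescence in place of polarization; lower means less elongation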
The depositor's hits bear a star; & = joins results of further samples. Compounds as they come; any-hit rate near 1.8%.

Results for NC(=O)CSc1nsc(SCC(N)=O)n1 ?
MenB inh: -17.4; PV pol inh: 101.0; Mtb MbtI inh: -25.9; PV pol inh intensity: 100.0

Results for Cc1ccc(NC(=O)CN2C(=O)CSc3ncccc32)cc1 ?
MenB inh: -7.9; PV pol inh: 102.0; Mtb MbtI inh: -4.8; PV pol inh intensity: 107.0

Results for CC1=NN(c2nc3ccccc3s2)C(O)(C(F)(F)F)C1 (stereo not drawn) ?
MenB inh: -11.9; PV pol inh: 101.0; Mtb MbtI inh: -1.2; PV pol inh intensity: 97.0

Results for COc1ccccc1NCC(=O)Nc1ccc(N2CCOCC2)cc1 ?
MenB inh: -8.7; PV pol inh: 101.0; Mtb MbtI inh: -18.9; PV pol inh intensity: 106.0

What do the screens show for `CC1(C)CC(NC(=O)CCCC(=O)O)CC(C)(C)N1`?
MenB inh: -6.4; PV pol inh: 102.0; Mtb MbtI inh: -19.4; PV pol inh intensity: 103.0

How did Cc1ccccc1COc1ccccc1C(=O)O do in these assays?
MenB inh: -14.4; PV pol inh: 103.0; Mtb MbtI inh: 0.8; PV pol inh intensity: 104.0

Results for C=CCN(CC=C)S(=O)(=O)c1ccc(NC(=O)Nc2ccccc2)cc1 ?
MenB inh: -25.4; PV pol inh: 99.0; Mtb MbtI inh: 1.1; PV pol inh intensity: 99.0

What do the screens show for `CC(C)(CN=C1NS(=O)(=O)c2ccccc21)CNC(=O)c1ccccc1Cl`?
MenB inh: -12.2; PV pol inh: 103.0; PV pol inh intensity: 88.0

Results for Cc1ccc(-c2noc(CNc3ccc(Oc4ccccc4)cc3)n2)cc1 ?
MenB inh: -18.4; PV pol inh: 100.0; Mtb MbtI inh: -12.5; PV pol inh intensity: 100.0

What do the screens show for `O=C(CCc1c[nH]c2ccccc12)OCN1C(=O)c2ccccc2C1=O`?
MenB inh: -0.9; PV pol inh: 101.0; Mtb MbtI inh: -12.5; PV pol inh intensity: 95.0

How did CCOc1cccc(C(=O)N2CCCCC2c2cccnc2)c1 (stereo not drawn) do in these assays?
MenB inh: -23.7; PV pol inh: 100.0; Mtb MbtI inh: 1.5; PV pol inh intensity: 102.0

Results for O=C(O)c1c[nH]c(=O)cc1C(F)(F)F ?
MenB inh: -7.3; PV pol inh: 101.0; Mtb MbtI inh: 89.0; PV pol inh intensity: 97.0

How did O=C(CNC(=O)c1ccc2ccccc2c1)NCc1ccccn1 do in these assays?
MenB inh: -21.8; PV pol inh: 102.0; Mtb MbtI inh: 93.0; PV pol inh intensity: 98.0

Results for NNC(=O)c1c(O)c2ccccc2[nH]c1=O ?
MenB inh: 3.2; PV pol inh: 102.0; Mtb MbtI inh: 15.3; PV pol inh intensity: 102.0

How did CCC(C)NC(=O)Cn1c(=O)n(-c2ccc(Cl)c(Cl)c2)c(=O)c2c(C)c(C)sc21 (stereo not drawn) do in these assays?
MenB inh: 2.1; PV pol inh: 100.0; Mtb MbtI inh: 5.8; PV pol inh intensity: 99.0

How did O=C(NCC1(c2ccccc2)CCCC1)c1ccc(Cl)cc1 do in these assays?
MenB inh: -13.2; PV pol inh: 107.0; PV pol inh intensity: 106.0

Results for Cc1c(C(=O)NC2CCCc3ccccc32)oc2ccc(S(=O)(=O)N3CC(C)CC(C)C3)cc12 (stereo not drawn) ?
MenB inh: 0.0; PV pol inh: 98.0; Mtb MbtI inh: 0.4; PV pol inh intensity: 103.0

What do the screens show for `N#CC(C#N)=Cc1ccc(O)cc1`?
MenB inh: -48.2; PV pol inh: 100.0&96.0; Mtb MbtI inh: 20.2; PV pol inh intensity: 101.0&100.0

What do the screens show for `CNCC(=O)NC1CC1`?
MenB inh: 0.2; PV pol inh: 103.0; Mtb MbtI inh: -3.9; PV pol inh intensity: 107.0

Results for NC(=O)c1ccccc1OCC(=O)O ?
PV pol inh: 101.0; Mtb MbtI inh: -0.1; PV pol inh intensity: 101.0

Arranged by length of the SMILES (high to low): part of the list above
Results for C=CCN(CC=C)S(=O)(=O)c1ccc(NC(=O)Nc2ccccc2)cc1 ?
MenB inh: -25.4; PV pol inh: 99.0; Mtb MbtI inh: 1.1; PV pol inh intensity: 99.0

How did O=C(CNC(=O)c1ccc2ccccc2c1)NCc1ccccn1 do in these assays?
MenB inh: -21.8; PV pol inh: 102.0; Mtb MbtI inh: 93.0; PV pol inh intensity: 98.0

What do the screens show for `CC1(C)CC(NC(=O)CCCC(=O)O)CC(C)(C)N1`?
MenB inh: -6.4; PV pol inh: 102.0; Mtb MbtI inh: -19.4; PV pol inh intensity: 103.0

How did CCOc1cccc(C(=O)N2CCCCC2c2cccnc2)c1 (stereo not drawn) do in these assays?
MenB inh: -23.7; PV pol inh: 100.0; Mtb MbtI inh: 1.5; PV pol inh intensity: 102.0

What do the screens show for `N#CC(C#N)=Cc1ccc(O)cc1`?
MenB inh: -48.2; PV pol inh: 100.0&96.0; Mtb MbtI inh: 20.2; PV pol inh intensity: 101.0&100.0

(listing goes on)
What do the screens show for `CSc1sc(C(=O)NN)cc1S(=O)(=O)C(C)C`?
MenB inh: -16.0; PV pol inh: 101.0; Mtb MbtI inh: -2.9; PV pol inh intensity: 99.0

What do the screens show for `Cn1c(CCCO)nc2ccccc21`?
MenB inh: -13.1; PV pol inh: 101.0; Mtb MbtI inh: -11.2; PV pol inh intensity: 98.0

Results for Cc1ccc2c(Sc3ccc(Cl)cc3)c(C(=O)O)[nH]c2c1 ?
MenB inh: -4.8; PV pol inh: 101.0; Mtb MbtI inh: 21.6; PV pol inh intensity: 100.0

How did Cc1cc(C)cc(OCC(=O)OCC(=O)NC23CC4CC(CC(C4)C2)C3)c1 do in these assays?
PV pol inh: 101.0; Mtb MbtI inh: -9.8; PV pol inh intensity: 102.0

How did Cc1ccc(-c2csc3nc[nH]c(=S)c23)cc1 do in these assays?
PV pol inh: 101.0; Mtb MbtI inh: -4.3; PV pol inh intensity: 105.0

How did O=C(Nc1cccnc1)c1ccccc1O do in these assays?
PV pol inh: 105.0; Mtb MbtI inh: 81.7; PV pol inh intensity: 107.0

How did CN(C)S(=O)(=O)c1cccc(C(=O)NCC2CCCO2)c1 (stereo not drawn) do in these assays?
MenB inh: 9.4; PV pol inh: 103.0; Mtb MbtI inh: -1.8; PV pol inh intensity: 102.0

How did O=C(/C=C/c1ccccc1)CC(=O)c1ccccc1O do in these assays?
MenB inh: -113.2; PV pol inh: 102.0; Mtb MbtI inh: -15.4; PV pol inh intensity: 103.0

How did O=C(O)COc1ccccc1/C=N/NC(=O)c1ccccc1 do in these assays?
MenB inh: -18.1; PV pol inh: 100.0; Mtb MbtI inh: 5.7; PV pol inh intensity: 101.0

How did COC(=O)NN1CC(O)=C(c2nc(-c3ccc(F)cc3)cs2)C1=N do in these assays?
MenB inh: -34.7; PV pol inh: 105.0; Mtb MbtI inh: 7.8; PV pol inh intensity: 106.0

How did O=C(NCC1CCCO1)c1cccc2ccccc12 (stereo not drawn) do in these assays?
MenB inh: -12.9; PV pol inh: 102.0; Mtb MbtI inh: 14.6; PV pol inh intensity: 100.0

What do the screens show for `O=c1[nH]c(O)c(C=NC2CCCCCC2)c(=O)[nH]1`?
MenB inh: -8.4; PV pol inh: 101.0; Mtb MbtI inh: 23.9; PV pol inh intensity: 101.0

What do the screens show for `O=C(NCCCN1CCCCC1)c1ccc(CS(=O)c2ccc(Cl)cc2)o1` (stereo not drawn)?
MenB inh: 8.0; PV pol inh: 102.0; Mtb MbtI inh: -15.9; PV pol inh intensity: 103.0

Results for O=C(CCN1CCN(c2ccccc2)CC1)N/N=C/c1ccncc1 ?
MenB inh: -8.8; PV pol inh: 104.0; Mtb MbtI inh: -8.1; PV pol inh intensity: 104.0

What do the screens show for `CC(C(=O)Nc1ccc2c(c1)OCCO2)N1CC=C(c2ccccc2)CC1` (stereo not drawn)?
MenB inh: -11.2; PV pol inh: 111.0; Mtb MbtI inh: -3.5; PV pol inh intensity: 126.0

How did Clc1ccc(-c2csc3c4ncnc-4ncn23)cc1 do in these assays?
MenB inh: -4.1; PV pol inh: 107.0; PV pol inh intensity: 105.0

How did Fc1ccc([C@@H]2CCNC[C@H]2COc2ccc3c(c2)OCO3)cc1 do in these assays?
MenB inh: -0.1; PV pol inh: 99.0; Mtb MbtI inh: -4.1; PV pol inh intensity: 101.0

What do the screens show for `O=c1c(-c2cc3ccccc3o2)[n+]([O-])c2ccccc2n1O`?
MenB inh: -101.2; PV pol inh: 74.0; Mtb MbtI inh: 9.0; PV pol inh intensity: 138.0

How did CN(C)CCNC(=O)c1cc2ccccc2oc1=O do in these assays?
MenB inh: -5.7; PV pol inh: 100.0; Mtb MbtI inh: 148.9; PV pol inh intensity: 101.0

Results for O=C(COC(=O)/C=C/c1ccco1)Nc1ccc(F)cc1F ?
PV pol inh: 105.0; Mtb MbtI inh: -4.3; PV pol inh intensity: 108.0

In the list so far, these contain a furan ring, fused or not.
Results for Cc1c(C(=O)NC2CCCc3ccccc32)oc2ccc(S(=O)(=O)N3CC(C)CC(C)C3)cc12 (stereo not drawn) ?
MenB inh: 0.0; PV pol inh: 98.0; Mtb MbtI inh: 0.4; PV pol inh intensity: 103.0

What do the screens show for `O=C(NCCCN1CCCCC1)c1ccc(CS(=O)c2ccc(Cl)cc2)o1` (stereo not drawn)?
MenB inh: 8.0; PV pol inh: 102.0; Mtb MbtI inh: -15.9; PV pol inh intensity: 103.0

What do the screens show for `O=c1c(-c2cc3ccccc3o2)[n+]([O-])c2ccccc2n1O`?
MenB inh: -101.2; PV pol inh: 74.0; Mtb MbtI inh: 9.0; PV pol inh intensity: 138.0

Results for O=C(COC(=O)/C=C/c1ccco1)Nc1ccc(F)cc1F ?
PV pol inh: 105.0; Mtb MbtI inh: -4.3; PV pol inh intensity: 108.0

Other records:
Results for CCN(CC)CCNc1cc(C)c2cccc(C)c2n1 ?
MenB inh: -10.6; PV pol inh: 96.0; Mtb MbtI inh: 9.8; PV pol inh intensity: 107.0

Results for CCCN1C(=O)/C(=C/c2ccc(C)o2)NC1=S ?
MenB inh: -73.7; PV pol inh: 101.0; Mtb MbtI inh: 63.2*; PV pol inh intensity: 106.0

How did Cc1ccc(NS(=O)(=O)CC23CCC(CC2=O)C3(C)C)c(Br)c1 (stereo not drawn) do in these assays?
PV pol inh: 101.0; Mtb MbtI inh: -3.9; PV pol inh intensity: 99.0

How did CCCCC[C@H](O)CC(=O)CCc1ccc(O)c(OC)c1 do in these assays?
MenB inh: -9.0; PV pol inh: 98.0&99.0; Mtb MbtI inh: -9.4; PV pol inh intensity: 104.0&102.0

Results for O=C(CS(=O)(=O)Nc1cccc(C(F)(F)F)c1)Nc1cccc(C(F)(F)F)c1 ?
MenB inh: -0.2; PV pol inh: 99.0; Mtb MbtI inh: -9.9; PV pol inh intensity: 113.0

How did CCOC(=O)C1CCN(c2cc(C)c(C#N)c3nc4ccccc4n23)CC1 do in these assays?
MenB inh: 34.3; PV pol inh: 103.0; Mtb MbtI inh: 0.4; PV pol inh intensity: 102.0

How did CCN1CCN(c2c(C(=O)c3ccccc3)cnc3ccc(OC)cc23)CC1 do in these assays?
MenB inh: 1.6; PV pol inh: 100.0; Mtb MbtI inh: 3.0; PV pol inh intensity: 101.0

How did CCOc1ccc(NC(=O)CCN2C(=S)NC(C)(C)CC2C)cc1 (stereo not drawn) do in these assays?
MenB inh: 17.9; PV pol inh: 99.0; Mtb MbtI inh: -1.1; PV pol inh intensity: 103.0

Results for Cc1cc(C)n2ncc(C(=O)NC3CCCC3)c2n1 ?
MenB inh: -16.3; PV pol inh: 104.0; Mtb MbtI inh: 116.2; PV pol inh intensity: 103.0

What do the screens show for `COc1ccc(C(=O)CSc2nc3ccc(OC)cc3[nH]2)cc1`?
MenB inh: -18.4; PV pol inh: 101.0; Mtb MbtI inh: -2.2; PV pol inh intensity: 106.0

What do the screens show for `Cc1cc(C(=O)OCC(=O)c2cccs2)c2ccccc2n1`?
MenB inh: -4.0; PV pol inh: 96.0; PV pol inh intensity: 93.0

Results for Cc1ncoc1C(=O)NCCC(c1ccccc1)c1ccccc1 ?
MenB inh: -10.1; PV pol inh: 101.0; Mtb MbtI inh: 4.2; PV pol inh intensity: 103.0

Results for CNC(=S)NN1C(C)CCCC1C (stereo not drawn) ?
MenB inh: 4.3; PV pol inh: 100.0; Mtb MbtI inh: -14.1; PV pol inh intensity: 103.0

How did CN(C1=NC(=O)CS1)c1ccc(Cl)cc1 do in these assays?
MenB inh: -7.6; PV pol inh: 101.0; Mtb MbtI inh: -7.8; PV pol inh intensity: 104.0

What do the screens show for `CCCCCn1c(SCC(=O)c2ccccc2)nc2cc(C(=O)NCc3ccco3)ccc2c1=O`?
MenB inh: -24.5; PV pol inh: 102.0; Mtb MbtI inh: -5.6; PV pol inh intensity: 103.0

Results for CC(Sc1ccccc1)C(=O)Nc1ccc(Cl)cc1 (stereo not drawn) ?
MenB inh: -9.2; PV pol inh: 103.0; PV pol inh intensity: 106.0

What do the screens show for `COc1ccc(Nc2nc(C)cc(=O)[nH]2)cc1`?
MenB inh: -34.6; PV pol inh: 101.0; Mtb MbtI inh: -13.7; PV pol inh intensity: 103.0
